# Cruzain inh noDet – qHTS Assay for Promiscuous and Specific Inhibitors of Cruzain (without detergent) | hit rate 2.3% among 200,000 | purified cruzain, Z-FR-AMC fluorescence, no detergent | Potency, µM, for the others: max response, negative = inhibition, hits mostly inhibitors;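 further: plate controls were enzyme without inhibitor for no effect and buffer without enzyme for full effect; nearly all actives have a fitted effect of over 40% in size; top concentration of the series not given in the record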
# Target sequence (P25779 123-467 limits assumed): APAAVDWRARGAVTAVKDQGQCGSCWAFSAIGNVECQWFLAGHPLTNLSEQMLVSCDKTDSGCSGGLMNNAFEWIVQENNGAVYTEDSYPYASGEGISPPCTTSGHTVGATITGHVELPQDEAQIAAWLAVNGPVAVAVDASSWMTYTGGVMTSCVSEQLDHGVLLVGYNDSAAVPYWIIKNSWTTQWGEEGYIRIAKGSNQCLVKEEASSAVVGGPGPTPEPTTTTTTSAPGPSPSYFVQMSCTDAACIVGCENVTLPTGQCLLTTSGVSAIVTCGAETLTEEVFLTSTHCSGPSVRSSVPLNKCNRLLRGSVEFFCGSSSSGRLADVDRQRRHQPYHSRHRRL
#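 Detergent-free condition (0.00005% Triton X-100) in acetate buffer pH 5.5 with DTT. 1.5 nM enzyme and compound were pre-mixed 15 min, then 2 uM Z-FR-AMC substrate added; reaction progress from fluorescence change between first and third reads (60 s).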
# Marburg entry inh – qHTS for inhibitors of binding or entry into cells for Marburg Virus; Potency, µM (doses to about 37.8 µM), for the others: top-dose activity change, negative = inhibition, hits mostly inhibitors; hit rate 1.8% among 300,000; Marburg virus pseudotyped entry inhibition, cell reporter; control for the full effect not named in the record; about a third of the inactives were read at about 46 µM; active = well fitted inhibition curve with a large enough effect; inconclusive = small, poorly fitted or top-dose-only effect, or effect the other way; inactive = flat fitted curve, though single readings scatter; tested in HEK293 cells; about a fifth of its hits are not listed in these tables; further: on the % scale 0 is the no-effect control and ±100 the full control effect; luciferase read-out
# RE007 growth inh – qHTS Assay for Inhibitors of the HIV-1 protein Vpr; S. pombe RE007 Vpr strain, BacTiter-Glo ATP luminescence, 24 h; control for the full effect not named in the record; Potency, µM (doses to about 92.2 µM), for the others: at the top dose activity change, negative = less growth; hit rate 0.21% among 360,000; AID 651644, 2012; active = well fitted falling curve with a large enough effect; inconclusive = small, poorly fitted or top-dose-only effect; inactive = no such curve, though single readings can be large or run the other way;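 further: on the % scale 0 is the no-effect control and ±100 the full control effect; nearly all actives have a fitted effect of over 50% in size; the assay follows cell death caused by Vpr and the record does not say whether a fall means rescue or toxicity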
#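 Fission yeast strain RE007, carrying one chromosomally integrated HIV-1 vpr copy, was seeded at OD 0.01 in PMG+AL medium with 23 nL pinned compound. After 24 h at 30 °C and 99% humidity, viability was read by BacTiter-Glo luminescence.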
# NS1 function inh – qHTS Assay for Inhibitors of Influenza NS1 Protein Function; S. cerevisiae slowed by influenza A NS1, growth recovery by OD600; Potency, µM (top dose mostly 46.1 µM), without a hit: at the top dose activity, positive = more growth; hit rate 0.4% among 270,000; AID 2326, 2010; active means well fitted rising curve with a large enough effect; inconclusive means small, poorly fitted or top-dose-only effect; inactive means no such curve, though single readings can be large or run the other way; further: nearly all actives have a fitted effect of over 50% in size
#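 OD600 was taken as the measure of yeast growth restored by compound in an NS1-expressing S. cerevisiae strain. Cells had been washed out of glucose medium and diluted 1:100 into galactose -URA medium, pH 6.0.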
# SARS PLpro yeast – qHTS of Yeast-based Assay for SARS-CoV PLP. hit rate 0.19% among 330,000. S. cerevisiae expressing SARS-CoV PLpro, growth rescue; control for the full effect not named in the record. Potency, µM (titrated, usually from 32.9 µM), inactives show at the top dose activity, positive = growth rescue; active means well fitted rising curve with a large enough effect; inconclusive means small, poorly fitted or top-dose-only effect; inactive means no such curve, though single readings can be large or run the other way; further: 0% is about no effect; nearly all actives have a fitted effect of over 55% in size; growth read by luminescence after 48 h
# LASV entry inh – qHTS for Inhibitors of binding or entry into cells for Lassa Virus. Lassa virus pseudotype entry inhibition, cell reporter; control for the full effect not named in the record. AID 540256, 2011. hit rate 1.2% among 300,000. Potency, µM (highest dose often 37.9 µM), without a hit: top-dose activity change, negative = inhibition, usual class: inhibitors; active means well fitted inhibition curve with a large enough effect; inconclusive means small, poorly fitted or top-dose-only effect, or effect the other way; inactive means flat fitted curve, though single readings scatter; tested in HEK293 cells; further: on the % scale 0 is the no-effect control and ±100 the full control effect; nearly all actives have a fitted effect of over 50% in size; luciferase read-out
# 2A StopGo – High Throughput Screening for Foot and Mouth Disease Virus Antivirals; hit rate 1.2% among 410,000; human cells with a luciferase reporter of 2A StopGo recoding; control for the full effect not named in the record; Potency, µM (titrated, usually from 57.9 µM), inactives show at the top dose signal change, negative = less light; active = well fitted falling curve with a large enough effect; inconclusive = small, poorly fitted or top-dose-only effect; inactive = no such curve, though single readings can be large or run the other way; tested in HEK293T cells; further: on the % scale 0 is the no-effect control and ±100 the full control effect; nearly all actives have a fitted effect of over 45% in size; luciferase light after 4 h
# Cruzain Triton – qHTS Assay for Promiscuous and Specific Inhibitors of Cruzain (with detergent). hit rate 0.43% among 200,000. Potency, µM, for the others: max response, negative = inhibition, usual class: inhibitors. purified cruzain, Z-FR-AMC fluorescence, 0.01% Triton. Cruzipain (Trypanosoma cruzi), P25779;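 further: plate controls were neutral wells for no effect and buffer without enzyme for full effect; nearly all actives have a fitted effect of over 40% in size; top concentration of the series not given in the record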
#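 In this qHTS format, compounds are incubated with 1.5 nM cruzain for 15 min at room temperature before 2 uM Z-FR-AMC is added. Release of AMC is followed at 360/450 nm, and progress is taken as the 60 s fluorescence difference.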
# * marks the source's active call; other numbers are inactive results; ? = inconclusive; · = not tested or not shown; ! = repeats disagree; [ ] = remark or other dose. Unless noted, the call rests on the fitted dose curve; in most records, active means well fitted curve in the direction sought with a large enough effect; inconclusive means small, poorly fitted or top-dose-only effect, or another doubt; inactive means no such curve, though single readings can be large; an effect the other way counts as inactive or inconclusive. Potency means the concentration at half of the fitted maximal effect.
SMILES,Cruzain inh noDet,Marburg entry inh,RE007 growth inh,NS1 function inh,SARS PLpro yeast,LASV entry inh,2A StopGo,Cruzain Triton
CC(=O)NC(CC(C)C)C(=O)NC(Cc1ccccc1)C(N)=O (stereo not given),-1%,?,-15%,-1%,6%,1%,32%[activator],3.5%
CC1Cn2c(COc3ccccc3)nnc2S1 (stereo not given),-5%,·,-4%,1%,1%,·,3%,0.1%
COCCn1c(=NC(=O)CSCC(=O)N2CCOCC2)sc2ccccc21,·,11%,-14%,5%,-5%,-5%,-11%,·
COc1ccc(C2=CC(c3cc(Br)ccc3F)n3c(nc4ccccc43)N2)cc1 (stereo not given),-17%,·,·,·,·,-27%[46.1 µM],-85%,-3.2%
CN1/C(=C\C(=O)Nc2ccc(Cl)cc2)C(C)(C)c2ccccc21,-2%,?,-3%,-22%,-103%,-20%[46.1 µM],5%,-8.7%
O=C(c1ccc(S(=O)(=O)Nc2cccc(C(F)(F)F)c2)cc1)N1CCOCC1,·,?,7%,-5%,0%,-21%[46.1 µM],28%,·
O=C(NCc1cn2ccccc2n1)c1ccccc1,-1%,?,-18%,-7%,-1%,?,44%[activator],0.0%
CCOc1cc(NC(=O)c2ccccc2C(=O)O)c(OCC)cc1NC(=O)c1ccccc1F,·,20%[46.1 µM],-3%,25%,·,-9%[46.1 µM],48%[activator],·
Cc1cc(C)cc(NC(=O)C(OC(=O)c2ccc(NC(=O)CC#N)cc2)c2ccccc2)c1 (stereo not given),·,-21%[46.1 µM],25%,·,11%,23%,-6%,·
CC(=O)Nc1ccc(-c2nn[nH]n2)cc1,·,·,14%,4%,-1%,·,-19%,·
Cc1ccn2c(=O)nc(SCC(=O)N3CCCCCC3)nc2c1,·,-15%,17%,·,-4%,16%,23%,·
O=[N+]([O-])c1cc(C(F)(F)F)c(Cl)cc1N1CCN(CCO)CC1,1%,-1%,7%,-8%,-8%,10%,?,-6.9%
COc1ccc(NC(=O)CSc2nc3ncccc3[nH]2)c(OC)c1,-7%,13%[46.1 µM],·,·,·,·,10%,-5.2%
Cc1c(NC(=O)CSc2ccccc2F)c(=O)n(-c2ccccc2)n1C,·,-1%[46.1 µM],10%,12%,1%,-6%,-19%,·
O=C(NCC(c1cccnc1)N1CCc2ccccc21)C(=O)Nc1ccccc1F (stereo not given),-5%,·,·,·,·,1%[46.1 µM],-18%,5.4%
CCC(=O)c1cn(CC(=O)OC)c2ccccc12,-1%,-5%,15%,1%,1%,-6%,-21%,0.0%
COC(=O)CC1COc2ccccc2N1C(=O)c1ccc(Br)cc1 (stereo not given),·,1%,-8%,·,-1%,-19%,?,·
COc1cccc(CNC(=O)[C@H](CC(C)C)NC(=O)N2CCn3c2nc2ccccc23)c1,·,·,-13%,-21%,-3%,·,-17%,·
Cc1cc(C)n(-c2ccc(C(=O)Nc3ccc(S(=O)(=O)NCc4ccco4)cc3)cc2)n1,7%,13µM*!,16%,-2%,5%,?,?,-11%
O=C(CN1C(=O)C2CCCN2c2ncc(Cl)cc21)NCc1ccc2c(c1)OCO2 (stereo not given),25µM*,-5%,8%,?,8%,13%,-11%,3.0%
Cc1ccccc1NC(=O)CN1C(=O)CSc2ccc(S(=O)(=O)N3CCCCC3)cc21,·,·,22%,2%,1%,·,19%,·
Cn1cc(C(=O)NC2CC2)c2ccccc21,·,4%[46.1 µM],7%,11%,-2%,-17%,-16%,·
Cc1cc(O)cc(O[C@H]2OC(CO)[C@H](O)[C@@H](O)[C@H]2O)c1 (stereo not given in full),12%,1%,-10%,6%,9%,0%,-5%,-4.7%
COc1ccc(C2(C)NC(=O)N(CC(=O)Nc3ccc(-c4nc5ccc(C)cc5s4)cc3)C2=O)cc1 (stereo not given),·,?,-22%,12%,29%,?,5%,·
CCCc1c(C(=O)NNc2ccc(C)cc2)cnn1-c1ccccc1,·,?,15%,-4%,-1%,?,-23%,·

# More records.
SMILES,Cruzain inh noDet,Marburg entry inh,RE007 growth inh,NS1 function inh,SARS PLpro yeast,LASV entry inh,2A StopGo,Cruzain Triton
Cc1ccc(NC(=O)Nc2cccc(F)c2)nc1,·,·,-13%,3%,-5%,·,71%[activator],·
CC1CCN(S(=O)(=O)c2ccc3c(c2)N(CC(=O)N(C)Cc2ccccc2)C(=O)CO3)CC1,?,·,·,·,·,2%[46.1 µM],-10%,-5.0%
Cc1ccnc(NC(=O)c2ccc3c(c2)C(=O)N(CC(C)C)C3=O)c1,·,·,-11%,-22%,0%,·,-5%,·
CC(Sc1n[nH]c(-c2ccccc2F)n1)C(=O)Nc1ccc(S(N)(=O)=O)cc1 (stereo not given),·,?,-4%,·,?,16%,-15%,·
COc1cc(NC(=S)NC(=O)c2ccccc2F)ccc1NC(=O)c1ccco1,0%,-11%,-5%,12%,-14%,0%,-13%,-8.0%
Cc1ccc(S(=O)(=O)N2CN(Cc3ccco3)c3nc4ccccc4nc32)cc1,-5%,-7%,-3%,9%,-11%,-5%,14%,-11%
CC(=O)c1ccc(NC(=O)c2ccc(CNc3c(N4CCCC4)c(=O)c3=O)cc2)cc1,·,·,2%,5%,-1%,·,17%,·
CC(C)NC(=O)CN(Cc1ccc(F)cc1)C(=O)CCC(=O)Nc1ccccn1,·,-12%[46.1 µM],2%,-1%,-4%,·,15%,·
COc1cccc(-n2c(-c3ccco3)nc3c(cnn3-c3ccc(Cl)cc3)c2=O)c1,7%,-28%[46.1 µM],·,·,·,?,?,-5.6%
COCCCNC(=O)c1sc2nc(C)c(C(=O)Nc3ccc(Cl)cc3)c(-c3ccc(Br)cc3)c2c1N,?,?,·,·,·,1%[46.1 µM],-16%,-4.6%
Cc1cccnc1CN1CCN(Cc2nc(Cc3cccc(F)c3)no2)CC1,·,·,-18%,-3%,0%,·,-20%,·
CCOc1ccccc1N(CC(=O)NCCSc1ccccc1)S(C)(=O)=O,·,?,2%,1%,0%,-6%,-10%,·
NC(=S)NN=C1CCC(C2CCCCC2)CC1 (stereo not given),·,?,-13%,·,·,-20%[46.1 µM],-18%,·
O=C1CCCN=C(Nc2ccc(F)c(Cl)c2)S1,·,5%[46.1 µM],-10%,-7%,-1%,5%,?,·
COCCCN1C(=O)/C(=C\c2ccc3c(c2)OCO3)C(C(=O)OC)=C1C,·,·,2%,1%,0%,·,?,·
Cc1ccc(S(=O)(=O)N2CCN(C(=O)COC(=O)c3ccc(Br)o3)CC2)c(C)c1,·,4%,3%,·,-10%,14%,-13%,·
Cc1ccc(SCC(=O)NC(=O)Nc2ccc3c(c2)OCCO3)c(C)c1,7%,6%,27%,2%,5%,-6%,-16%,-1.6%
Fc1ccc(CNC(=S)NCc2ccc(F)cc2)cc1,·,1%[46.1 µM],-4%,-7%,-1%,-22%,31%[activator],·
CCc1nc(SCc2ccccc2)n[nH]1,·,-2%,-2%,-15%,-1%,?,31%[activator],·
O=C(Nc1ccc(Cl)cc1Cl)c1cc(S(=O)(=O)N2CCN(c3ccccc3F)CC2)ccc1F,4%,·,·,·,·,10%[46.1 µM],-19%,0.7%
COc1ccc(-n2c(SCc3cn4c(C)cccc4n3)nc3ccccc3c2=O)cc1OC,·,·,-19%,-33%,-1%,·,-28%,·
CCOC(=O)Cn1c(=N)n(CCOc2ccc3ccccc3c2)c2ccccc21,?,?,6%,3%,2%,?,-16%,-9.0%
NS(=O)(=O)c1ccc(NC(=O)/C=C/c2cccs2)cc1,·,17%,10%,-3%,0%,6%,11%,·
Cn1sc(NC(=O)c2cccc(Cl)c2)nc1=O,8%,?,-17%,-173%,-26%,1%,41%[activator],1.4%
Cc1cc(Cn2nnc(-c3ccc(Br)cc3)n2)cc(C)c1O,·,-19%,7%,·,1%,?,-22%,·
CCC(C)[C@H](NC(=O)C1CC(=O)N(c2ccc3c(c2)OCO3)C1)C(=O)NC1CCCCC1 (stereo not given in full),·,·,1%,2%,3%,·,-1%,·
CCOC(=O)C1CCCN(C2=NC(=O)/C(=C/c3ccc(N(C)C)cc3)S2)C1 (stereo not given),·,-11%[46.1 µM],5%,-7%,0%,?,27%,·
CCCc1nc2ccccc2c(=O)n1NC(=O)c1c(O)c2ccccc2[nH]c1=O,-13%,-7%,0%,?,13%,-41%[14.3 µM],-15%,7.1%
CC(C)[C@H](NC(=O)[C@@H]1CSC2c3ccccc3C(=O)N21)C(=O)N1CCCCC1 (stereo not given in full),·,·,1%,25%,-4%,·,-21%,·

# Part of the list above, reduced to Cruzain Triton, LASV entry inh and NS1 function inh.
mol | Cruzain Triton | LASV entry inh | NS1 function inh
O=C(Nc1ccc(Cl)cc1Cl)c1cc(S(=O)(=O)N2CCN(c3ccccc3F)CC2)ccc1F | 0.7% | 10%[46.1 µM] | ·
Cc1ccc(S(=O)(=O)N2CCN(C(=O)COC(=O)c3ccc(Br)o3)CC2)c(C)c1 | · | 14% | ·

# In the list so far, two contain a CF3 group:
SMILES,Cruzain inh noDet,Marburg entry inh,RE007 growth inh,NS1 function inh,SARS PLpro yeast,LASV entry inh,2A StopGo,Cruzain Triton
O=C(c1ccc(S(=O)(=O)Nc2cccc(C(F)(F)F)c2)cc1)N1CCOCC1,·,?,7%,-5%,0%,-21%[46.1 µM],28%,·
O=[N+]([O-])c1cc(C(F)(F)F)c(Cl)cc1N1CCN(CCO)CC1,1%,-1%,7%,-8%,-8%,10%,?,-6.9%

# Of the compounds above, these contain a thiophene ring, fused or not.
SMILES,Cruzain inh noDet,Marburg entry inh,RE007 growth inh,NS1 function inh,SARS PLpro yeast,LASV entry inh,2A StopGo,Cruzain Triton
COCCCNC(=O)c1sc2nc(C)c(C(=O)Nc3ccc(Cl)cc3)c(-c3ccc(Br)cc3)c2c1N,?,?,·,·,·,1%[46.1 µM],-16%,-4.6%
NS(=O)(=O)c1ccc(NC(=O)/C=C/c2cccs2)cc1,·,17%,10%,-3%,0%,6%,11%,·

# Source: PubChem BioAssay
